miR-21 FLuc: miR-21 reporter, rising signal; HeLa miR-21 FLuc reporter, luciferase, 48 h; Potency, µM (series often up to 38.3 µM), for the others: top-dose reporter change, positive = more light; 340,000 tested, under 10 active; AID 2288; active = well fitted rising curve with a large enough effect; inconclusive = small, poorly fitted or top-dose-only effect; inactive = no such curve, though single readings can be large or run the other way;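 also: % of control where 0% means no effect; miR-21 action dims this reporter so a rising signal means less miR-21 action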
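Using DMEM plus 10% FBS, HeLa miR-21-FLuc cells are incubated with test compounds (final up to about 40uM) for 48 hours; firefly luciferase signal is then imaged following reagent-mediated lysis.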
Rango release inh: prevents RanGTP from dissociating the Rango-importin beta complex; O95149+P62826; Biochemical FRET Rango-importin beta, RanGTP-induced dissociation; Potency, µM (series often up to 46.1 µM), for the others: at the top dose activity change, negative = inhibition; 0.071% of 340,000 active; active means falling FRET ratio curve, often poorly fitted, with flat reads before Ran was added; inconclusive means other falling curves, or compound fluorescence or quenching; inactive means flat or rising ratio curve;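 also: potency is read from the fitted curve at half-maximal effect; % of control where 0% means no effect; nearly all actives have a fitted effect of over 45% in size; -100% = wells without RanGTP and RCC1; the record marks most hits as doubtful in a second field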
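Rango (0.1 uM)–importin beta (0.25 uM) complex; RanGTP-RCC1 trigger; 45 min RT; CFP/YFP FRET read.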
GLA inh pH 4.5: blocks human alpha-galactosidase A at pH 4.5 | P06280 | purified enzyme, 4-MU-alpha-Gal fluorescence, pH 4.5 | activity change, negative = inhibition, % at 105 µM | 230,000 tested, under 10 active; inconclusive = small, poorly fitted or top-dose-only inhibition, or a rising curve; inactive = flat fitted curve, though single readings scatter; no compound was filed as active;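 also: 0% = full activity with enzyme and -100% = basal without enzyme; dose as in the result columns while the protocol names 77 µM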
Rango-impB inh: inhibitors of Rango-importin beta complex formation; Potency, µM (highest dose often 92.2 µM), inactives show top-dose inhibition of complex formation; 0.031% of 340,000 active; AID 540263; Rango CFP/YFP FRET sensor + importin beta, 45 min; Q14974; active = rising FRET ratio curve, often small or poorly fitted; inconclusive = mostly compound fluorescence or quenching in the first reads; inactive = flat curves in all reads;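 also: potency is read from the fitted curve at half-maximal effect; 0% = DMSO wells and 100% = buffer wells lacking importin beta; nearly all actives have a fitted effect of over 15% in size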
Target sequence (Q14974 whole entry, looked up): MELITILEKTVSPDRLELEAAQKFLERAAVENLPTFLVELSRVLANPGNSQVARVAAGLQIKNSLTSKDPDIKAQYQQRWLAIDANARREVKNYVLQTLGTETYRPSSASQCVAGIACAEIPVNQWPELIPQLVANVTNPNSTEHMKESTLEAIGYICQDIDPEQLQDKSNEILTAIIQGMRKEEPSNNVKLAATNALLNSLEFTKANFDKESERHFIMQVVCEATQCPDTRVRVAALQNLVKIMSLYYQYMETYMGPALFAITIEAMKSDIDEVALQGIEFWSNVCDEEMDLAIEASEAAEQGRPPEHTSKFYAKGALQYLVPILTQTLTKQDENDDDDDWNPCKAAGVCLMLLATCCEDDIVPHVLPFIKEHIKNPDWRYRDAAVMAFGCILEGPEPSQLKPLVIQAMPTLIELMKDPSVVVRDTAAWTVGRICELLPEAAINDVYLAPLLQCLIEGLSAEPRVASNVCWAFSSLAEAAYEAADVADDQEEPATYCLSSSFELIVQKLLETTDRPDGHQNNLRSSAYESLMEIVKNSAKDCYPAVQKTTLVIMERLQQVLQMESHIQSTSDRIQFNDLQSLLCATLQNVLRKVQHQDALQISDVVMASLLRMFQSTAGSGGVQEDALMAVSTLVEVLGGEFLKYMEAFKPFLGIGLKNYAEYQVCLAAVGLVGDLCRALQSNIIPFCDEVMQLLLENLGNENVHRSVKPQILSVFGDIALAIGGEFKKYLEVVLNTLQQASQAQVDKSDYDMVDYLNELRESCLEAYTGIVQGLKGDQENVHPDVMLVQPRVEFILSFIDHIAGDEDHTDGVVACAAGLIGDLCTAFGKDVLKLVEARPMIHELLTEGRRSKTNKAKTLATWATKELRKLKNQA
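Inhibition scored from the CFP 486 nm/YFP 530 nm FRET ratio 45 min after adding 0.125 microM importin beta to 50 nM Rango biosensor preincubated 5 min with compound (room temperature, PBS with DTT, Tween-20, BSA). No-importin wells as positive control.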
Numbers without * were called inactive; ? = inconclusive; . = not tested or not shown; [ ] = remark or other dose. Not all compounds are listed; the hit share may differ from the screen's.

nr	SMILES	Rango-impB inh	GLA inh pH 4.5	Rango release inh	miR-21 FLuc
1	Cc1ccc(NC(=O)Cn2ncc3c([nH]c4ccccc43)c2=O)cc1Cl	-6.9%	.	0%	-1%
2	Nc1nnc(SCc2nc3scc(-c4ccccc4)c3c(=O)[nH]2)s1	?	4	-12%	2%
3	COc1ccc(-c2nn(-c3ccccc3C)cc2CNCCc2cnc[nH]2)cc1F	-2.1%	5	23%	-16%
4	CC(C)c1cc(C(=O)N2CCN(C(c3ccccc3)c3ccccc3)CC2)no1	3.0%	-10	-1%	-1%
5	CC(Sc1ccc2nnc(-c3ccc(F)cc3)n2n1)C(=O)O (configuration not stated)	-5.3%	2	-15%	-4%
6	O=c1c2ccccc2nc2n1C(CSCc1ccc(Cl)cc1Cl)CS2 (configuration not stated)	3.1%	1	-5%	0%
7	Cc1ccc(S(=O)(=O)N(C)Cc2ccc(C(=O)N/N=C/c3ccc(OC(F)F)cc3OC(F)F)cc2)cc1	-0.6%	-4	18%	?
8	Cc1csc(SCC(=O)NCc2ccccc2)n1	1.8%	-25	15%	-2%
9	O=C(Nc1ccc(Br)cc1)c1cccc(S(=O)(=O)Nc2cnc3ccccc3c2)c1	0.0%	-18	20%	15%
10	Cc1cc(C)cc(NC(=O)CCN2CCOCC2)c1	1.2%	.	17%	0%
11	COc1ccc(CNCc2cccn2C)cc1	-0.4%	.	7%	0%
12	COc1ccc(CCNC(=O)CCCC(=O)n2nc(C)c3ccccc32)cc1OC	1.4%	.	9%	-4%
13	Cc1ccc(/C=C2\C(=O)Nc3ccccc32)o1	2.2%	3	-18%	-11%
14	COc1cccc(CN2CCNC(=O)C2CC(=O)N(C)Cc2nc(C)cs2)c1OC (configuration not stated)	6.6%	.	10%	-4%
15	O=C(NC(Cc1ccccc1)C(=O)N1CCN(S(=O)(=O)c2ccccc2)CC1)c1ccccc1 (configuration not stated)	-0.1%	.	-13%	.
16	COc1ccc(C(=O)NCC(=O)OCC(=O)Nc2ncc(Cl)cc2Cl)cc1[N+](=O)[O-]	-0.3%	.	-4%	.
17	C=CCC1(O)CC(c2ccco2)NC(c2ccco2)C1CCC (configuration not stated)	?	2	?	-3%
18	COc1cc(NCCCn2ccc(NC(=O)OCc3ccccc3)nc2=O)cc(OC)c1OC	4.5%	.	-3%	.
19	O=C(NCc1cccnc1)c1cc(Sc2ccc(F)cc2F)nc2ccccc12	-1.4%	-2	13%	?
20	NC(=O)c1ccccc1OCC(=O)Nc1ccc2c(c1)OCCO2	2.4%	.	2%	.
21	Cc1ccc(C(=O)N=c2sccn2C)o1	0.0%	.	-10%	-4%
22	COc1ccc(OC)c2sc(NC(=O)C3COc4ccccc4O3)nc12 (configuration not stated)	0.1%	.	0%	.
23	COc1ccc(C(=O)CCC(=O)NCCc2ccccc2F)cc1	-0.4%	.	3%	-5%
24	CC1CCc2c(sc3ncn(Cc4ccc(C(=O)O)cc4)c(=O)c23)C1 (configuration not stated)	-4.1%	5	22%	-13%
25	CC(C)c1ccc(-c2nn(-c3ccccc3)cc2C2C(C#N)=C(N)OC3=C2C(=O)CC(C)(C)C3)cc1 (configuration not stated)	0.2%	3	12%	-3%
26	CCC(C)(C)NC(=O)C(c1ccccn1)N(C(=O)c1csnn1)C1CCCCC1 (configuration not stated)	2.2%	9	-3%	0%
27	CCCC(=O)NC(C)c1nc2ccccc2n1CC (configuration not stated)	-1.6%	5	0%	1%
28	NC(=O)CC(NC(=O)Cc1cccc2ccccc12)c1ccc(NCCc2ccccc2F)c([N+](=O)[O-])c1 (configuration not stated)	0.5%	-12	25%	0%
29	COc1ccc(C(c2nnnn2Cc2ccc(F)cc2)N2CCN(c3ccccc3)CC2)cc1 (configuration not stated)	0.4%	-2	-6%	0%
30	CCOc1ccccc1NC(=O)Nc1c(C)n(-c2ccccc2)c(=O)n1C	-0.5%	3	4%	-4%

Given with two lines to a compound: part of the list above.
Results follow in this order: Rango-impB inh | GLA inh pH 4.5 | Rango release inh | miR-21 FLuc
(10) Cc1cc(C)cc(NC(=O)CCN2CCOCC2)c1
    1.2% | . | 17% | 0%
(11) COc1ccc(CNCc2cccn2C)cc1
    -0.4% | . | 7% | 0%
(12) COc1ccc(CCNC(=O)CCCC(=O)n2nc(C)c3ccccc32)cc1OC
    1.4% | . | 9% | -4%
(13) Cc1ccc(/C=C2\C(=O)Nc3ccccc32)o1
    2.2% | 3 | -18% | -11%
(14) COc1cccc(CN2CCNC(=O)C2CC(=O)N(C)Cc2nc(C)cs2)c1OC (configuration not stated)
    6.6% | . | 10% | -4%

Returning to the listing, repeating the 3 entries before the break.
nr	SMILES	Rango-impB inh	GLA inh pH 4.5	Rango release inh	miR-21 FLuc
28	NC(=O)CC(NC(=O)Cc1cccc2ccccc12)c1ccc(NCCc2ccccc2F)c([N+](=O)[O-])c1 (configuration not stated)	0.5%	-12	25%	0%
29	COc1ccc(C(c2nnnn2Cc2ccc(F)cc2)N2CCN(c3ccccc3)CC2)cc1 (configuration not stated)	0.4%	-2	-6%	0%
30	CCOc1ccccc1NC(=O)Nc1c(C)n(-c2ccccc2)c(=O)n1C	-0.5%	3	4%	-4%
31	CCOC(=O)c1ccc(N2CC(O)=C(c3nc4ccccc4c(=O)[nH]3)C2=N)cc1	?	-9	?	-3%
32	COc1ccc(N2CC(C(=O)OCC(=O)c3cccc(OC)c3)CC2=O)cc1 (configuration not stated)	-3.6%	-6	-9%	1%
33	CCOc1cc2c3c(c1)C1(OCCO1)C(=O)N3C(C)(C)CC2C (configuration not stated)	0.4%	-15	8%	-2%
34	Cc1ccnc(NC(=O)CSc2cc(=O)n(C)c3ccccc23)c1	1.9%	-4	1%	4%
35	CCOc1cc(NC(=S)NCCCN2CCOCC2)c(OCC)cc1NC(=O)CC(C)C	-1.1%	6	3%	-2%
36	CC(=O)c1cn(C)c(=O)n(C)c1=O	-1.8%	-6	1%	-1%
37	CN(C)NC(=S)NC1CC2CCC1C2 (configuration not stated)	-0.2%	-3	-6%	-6%
38	CC(OC(=O)Cc1n[nH]c(=O)c2ccccc12)C(=O)Nc1ccc(F)cc1 (configuration not stated)	1.2%	.	-1%	.
39	CCC(=O)NC(=Nc1nc2ccccc2s1)NC(=O)CC	-0.7%	5	-9%	-46%
40	Cc1onc(-c2ccccc2)c1C(=O)OCC(=O)Nc1cc(S(=O)(=O)N2CCOCC2)ccc1Cl	-0.4%	-10	-11%	0%
41	OC(COc1ccc(OCC(O)CN2CCN(Cc3ccccc3)CC2)cc1)CN1CCN(Cc2ccccc2)CC1 (configuration not stated)	1.6%	.	36%	.
42	COc1ccc(N/C=C\C(=O)c2ccc(Br)cc2)cc1OC	?	-5	?	-38%
43	CCOC(=O)C1(Cc2cccc(F)c2)CCN(C(=O)COC)CC1	1.1%	-3	-3%	1%
44	Cc1ccc2nc(NC(=O)C3CCN(S(=O)(=O)c4cc([N+](=O)[O-])ccc4Cl)CC3)sc2c1	1.0%	-5	-9%	7%
45	CN(C)C(=S)NC(C)(C)C	0.5%	1	-1%	-2%
46	Cn1c(C(=O)OCC(=O)NCc2cccs2)cc2sccc21	2.2%	2	-9%	0%
47	C#CCn1cc(Cl)cc(C(=O)Nc2ccccc2)c1=O	?	.	2%	-28%
48	CN(CC(=O)Nc1cc(C(F)(F)F)ccc1-n1cncn1)Cc1nc2ccccc2c(=O)[nH]1	-0.8%	.	-5%	.
49	COc1ccc(NC(=O)NC(=O)c2cc(OCC(F)(F)F)ccc2OCC(F)(F)F)cc1	-2.2%	-8	0%	-8%
50	Cc1c(C(=O)N(Cc2cccc(Br)c2)C2CCS(=O)(=O)C2)oc2ccc(F)cc12 (configuration not stated)	0.7%	.	-4%	9%
51	Cc1cc2c(cc(C(=O)O)n2C)s1	-5.1%	2	2%	-1%
52	Cc1ccc(N(CC(=O)NCc2ccc3c(c2)OCO3)C(=O)CCC(=O)Nc2ccccn2)cc1	2.0%	.	11%	0%
53	Cc1ccc2c(c1)cc(CN(Cc1cccnc1)C(=O)NCc1ccccc1)c1nnnn12	0.3%	-13	5%	-6%
54	O=C1CCC/C(=N\NC(=O)COc2ccc(Cl)cc2)C1	1.7%	-10	9%	0%
55	CC(C)(C)c1cccc(Cn2nnc3ccccc32)c1O	-3.9%	.	-18%	.
56	COc1cc(CCC(=O)OCC(=O)NCc2ccccc2)cc(OC)c1OC	-0.2%	-5	7%	3%
57	COc1cccc2cc(C(=O)NCc3ccccc3Br)c(=O)oc12	3.4%	.	6%	-4%
58	CCOc1cc(CNc2ccc3c(c2)OCCO3)cc(Br)c1OCC(N)=O	3.6%	4	-12%	16%
59	Cc1ccc(OCCC(=O)OCC(=O)N2CCN(S(=O)(=O)c3ccc(Cl)cc3)CC2)cc1	-0.1%	.	-14%	.
60	O=C(COC(=O)c1ccc(O)cc1)NCCCc1ccccc1	0.7%	-24	8%	-4%

Reprinted at random: 4 compounds from above, in no set order.
nr	SMILES	Rango-impB inh	GLA inh pH 4.5	Rango release inh	miR-21 FLuc
14	COc1cccc(CN2CCNC(=O)C2CC(=O)N(C)Cc2nc(C)cs2)c1OC (configuration not stated)	6.6%	.	10%	-4%
31	CCOC(=O)c1ccc(N2CC(O)=C(c3nc4ccccc4c(=O)[nH]3)C2=N)cc1	?	-9	?	-3%
24	CC1CCc2c(sc3ncn(Cc4ccc(C(=O)O)cc4)c(=O)c23)C1 (configuration not stated)	-4.1%	5	22%	-13%
35	CCOc1cc(NC(=S)NCCCN2CCOCC2)c(OCC)cc1NC(=O)CC(C)C	-1.1%	6	3%	-2%

(more compounds)
nr	SMILES	Rango-impB inh	GLA inh pH 4.5	Rango release inh	miR-21 FLuc
61	COc1ccc(-c2c(C#N)c(N)nc3c2CCC3)cc1	?	9[21.1 µM]	?	-5%
62	COc1ccccc1N1CCN(C(=O)c2ccc(-c3ccccc3)cc2)CC1	-1.8%	.	-4%	-17%
63	Cc1ccc(NC(=O)CCCSc2nc3ccccc3[nH]2)cc1	3.1%	3	14%	-1%
64	CC1C=CCC2C(=O)N(c3cccc(C(=O)N4CCCCCC4)c3)C(=O)C12 (configuration not stated)	?	.	-2%	.
65	CCCCS(=O)(=O)/C=C/[C@H]1[C@H](S(=O)(=O)CCCC)[C@H]2C=C[C@@H]1C2	-1.5%	-13	1%	-3%
66	CCC(CC)C(=O)Nc1c2c(nn1-c1ccc(OC)cc1)CS(=O)C2 (configuration not stated)	-0.3%	9	27%	-1%
67	Cc1cc(C(=O)CCC(=O)N2CCN(S(=O)(=O)c3cccs3)CC2)c(C)s1	-1.0%	?	5%	5%
68	CN(CC(=O)Nc1ncn[nH]1)S(=O)(=O)c1ccc(Br)cc1	-0.6%	.	-10%	-5%
69	COc1ccc(C)cc1NC(=O)c1cc(C2CC2)nc2c1c(C)nn2C1CCS(=O)(=O)C1 (configuration not stated)	6.4%	.	0%	.

2 compounds from above, showing only miR-21 FLuc and Rango release inh:
nr	Compound	miR-21 FLuc	Rango release inh
68	CN(CC(=O)Nc1ncn[nH]1)S(=O)(=O)c1ccc(Br)cc1	-5%	-10%
69	COc1ccc(C)cc1NC(=O)c1cc(C2CC2)nc2c1c(C)nn2C1CCS(=O)(=O)C1 (configuration not stated)	.	0%

From PubChem
